ALDH1A1 block = inhibitors of human aldehyde dehydrogenase 1A1; Potency, µM (doses to about 75.3 µM), without a hit: at the top dose activity, negative = inhibition, usual class: inhibitors; P00352; actives 7.3% (n = 220,000); Purified ALDH1A1, NADH fluorescence, propionaldehyde substrate; active = well fitted inhibition curve with a large enough effect, not every such curve was filed as active; inconclusive = small, poorly fitted or top-dose-only effect, or another doubt; inactive = no such curve, though single readings can be large or run the other way;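 also: plate controls were no enzyme wells and a reference inhibitor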
Target sequence (P00352 whole entry, looked up): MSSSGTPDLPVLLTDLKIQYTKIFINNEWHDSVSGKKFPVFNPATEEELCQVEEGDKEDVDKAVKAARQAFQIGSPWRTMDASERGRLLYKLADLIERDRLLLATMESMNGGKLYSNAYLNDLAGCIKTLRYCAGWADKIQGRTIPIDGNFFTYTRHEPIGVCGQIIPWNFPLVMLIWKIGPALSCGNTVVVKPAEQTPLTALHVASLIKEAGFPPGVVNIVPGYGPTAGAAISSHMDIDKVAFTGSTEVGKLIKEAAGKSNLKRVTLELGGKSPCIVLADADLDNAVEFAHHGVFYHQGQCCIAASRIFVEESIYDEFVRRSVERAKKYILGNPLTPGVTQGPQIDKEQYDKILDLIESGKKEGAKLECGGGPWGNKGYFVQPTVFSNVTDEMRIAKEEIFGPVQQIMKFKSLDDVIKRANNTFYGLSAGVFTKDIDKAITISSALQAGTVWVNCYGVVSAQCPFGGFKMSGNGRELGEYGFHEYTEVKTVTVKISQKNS
SMN2 splice up = increases expression of the SMN2 splice variant | HEK293 SMN2-luciferase splicing reporter, luminescence, 30-36 h | Potency, µM (titrated, usually from 46.1 µM), for the others: top-dose activity change, positive = activation, usual class: activators | actives 2.8% (n = 210,000) | AID 1458; also: % of control where 0% means no effect; nearly all actives have a fitted effect of over 55% in size
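HEK293 cells carry an SMN2 […]–luciferase reporter in which exon 7 inclusion puts luciferase in frame. Cells were plated 10-12 h before compound addition, then incubated 30-36 h at 37C. ONE-Glo luminescence was read; sodium butyrate at 4.5 mM final served as control.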
Tau ThT inhib = inhibitors of human tau fibril formation, thioflavin T binding | P10636 | recombinant tau K18 P301L, heparin-induced fibrillization, ThT fluorescence | Potency, µM (top dose mostly 57.4 µM), without a hit: at the highest dose activity, negative = inhibition, usual class: inhibitors | actives 2.1% (n = 270,000) | AID 1460; also: % is scaled to controls: 0 for no effect and ±100 for the full control effect; nearly all actives have a fitted effect of over 55% in size
Target sequence (P10636 561-689 P618L limits assumed): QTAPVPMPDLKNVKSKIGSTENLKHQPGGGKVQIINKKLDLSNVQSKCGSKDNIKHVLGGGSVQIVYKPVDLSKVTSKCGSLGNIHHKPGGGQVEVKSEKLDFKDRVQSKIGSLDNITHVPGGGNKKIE
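Using a mix of unlabeled (15 uM) and Alexa 594-labeled (0.24 uM) tau K18 P301L, heparin-triggered fibrillization over 6 hr at 37 C was scored by ThT fluorescence.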
Tau fluor cs = counter-screen for tau fibril formation inhibitors | tau K18 P301L Alexa594 fluorescence, heparin fibrillization | Potency, µM (series often up to 57.7 µM), inactives show at the top dose activity change, negative = decrease | actives 0.93% (n = 280,000); also: % is scaled to controls: 0 for no effect and ±100 for the full control effect; nearly all actives have a fitted effect of over 55% in size
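Human tau K18 P301L (15 uM unlabeled, 0.24 uM Alexa 594-labeled) in 100 mM sodium acetate pH 7 with 20 uM heparin, 6 hr at 37 C. ThT 30 uM added, 1 hr ambient; Alexa 594 FP and total fluorescence read at 555/632 nm.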
HTT aggregate = inhibitors of mutant huntingtin aggregate formation in PC12 cells | Potency, µM (titrated, usually from 46.1 µM), inactives show at the highest dose activity change, negative = inhibition, most hits filed as inhibitors | actives 1.1% (n = 220,000) | AID 1688 | PC12 HttQ103-GFP aggregates, Acumen cytometry, 40 h; also: % is scaled to controls: 0 for no effect and ±100 for the full control effect; nearly all actives have a fitted effect of over 60% in size
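Inducible Q103 Huntingtin exon 1–GFP PC12 line, 1500 cells/well in phenol red free DMEM with 5% equine and 5% calf serum. Tebufenozide 100 nM induced expression; compounds titrated; aggregates quantified by cytometry.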
Tau FP inhib = inhibitors of human tau fibril formation; K18 P301L tau heparin fibrillization, Alexa594 FP, 6 h; AID 1468; Potency, µM (series often up to 57.7 µM), for inactives: at the highest dose activity, negative = inhibition, most hits filed as inhibitors; actives 0.39% (n = 280,000); P10636; also: % is scaled to controls: 0 for no effect and ±100 for the full control effect; nearly all actives have a fitted effect of over 55% in size
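Heparin (20 uM) drove fibril formation of recombinant tau K18 P301L, 15 uM unlabeled with 0.24 uM Alexa 594 label, for 6 hr at 37 C in 100 mM sodium acetate pH 7. Fluorescence polarization (555/632 nm) read 1 hr after 30 uM ThT.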
HTT cytoprotect = protects HTT-Q103 PC12 cells, measured by ATP; AID 1471; Potency, µM (series often up to 56.4 µM), for inactives: cytoprotection (ATP increase), hits mostly activators; PC12 HTT-Q103 induced, cytoprotection, ATP luminescence, 40 h; actives 0.14% (n = 230,000);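 also: % of control where 0% means no effect; nearly all actives have a fitted effect of over 45% in size; toxic huntingtin expression switched on by the ecdysone agonist tebufenozide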
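Compounds added alongside 100 nM tebufenozide, which induces toxic Q103 huntingtin exon 1-GFP in stable PC12 cells; surviving cells quantified by luminescent ATP measurement. Medium: phenol red-free DMEM, 5% equine and 5% calf serum.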
* hit, by the source's call; ? = inconclusive; . = not tested or not shown; [ ] = dose if it differs, or a comment. Unless noted, calls follow the shape of the dose curve; as a rule, active = well fitted curve in the direction sought with a large enough effect; inconclusive = small, poorly fitted or top-dose-only effect, or another doubt; inactive = no such curve, though single readings can be large; an effect the other way counts as inactive or inconclusive. Potency is read from the fitted curve at half-maximal effect. This is a subset (hit frequency here may not be typical).

SMILES	ALDH1A1 block	SMN2 splice up	Tau ThT inhib	Tau fluor cs	HTT aggregate	Tau FP inhib	HTT cytoprotect
C=CCc1ccccc1OCC(O)CN1CCN(C(=O)OCC)CC1 (configuration not stated)	20µM*	-18%	-8%	-6%	24%	-8%	-8%
CN(C)S(=O)(=O)c1cccc(NC(=O)CNCC2CCCCC2)c1	?	23%	-6%	-3%	22%	0%	-23%[10 µM]
CC1CC(C(F)F)n2nc(C(=O)Nc3sc4c(c3C#N)CCC(C(C)(C)C)C4)nc2N1 (configuration not stated)	1%	9%	-7%	0%	14%	-5%	-3%[10 µM]
COc1ccc(/C=C/C(=O)OCC(=O)c2ccc3c(c2)NC(=O)CO3)c(OC)c1	6%	.	?	-25%	-5%[9.22 µM]	-7%	17%[10 µM]
Cc1ccc(Cl)c(OCCN2CCCC(C)C2)c1 (configuration not stated)	-12%	-22%	10%	8%	-5%	1%	-2%[10 µM]
O=C(O)CC1S/C(=N/N=C/c2ccccn2)NC1=O (configuration not stated)	2%	.	-5%	1%	1%[9.22 µM]	2%	11%[10 µM]
COc1ccc(NC(=O)c2nc[nH]c2C(=O)N[C@@H](C)C(=O)OC(C)(C)C)cc1	.	.	1%	?	1%[9.22 µM]	?	6%[10 µM]
CCc1cccc(C)c1NC(=O)CSc1nnc(-c2ccco2)n1N	?	.	9%	1%	8%	-2%	-20%[0.074 µM]
O=C(CNc1ccc(C(F)(F)F)cc1[N+](=O)[O-])OCC(=O)c1ccccc1	-8%	-17%	?	?	-8%	-12%	5%
O=C(N1CCOCC1)N(Cc1ccco1)CC1CCCO1 (configuration not stated)	?	6%	-16%	-1%	-15%	-10%	16%
Cc1cc(C)nc(NS(=O)(=O)c2ccc(NC(=O)c3ccc4c(c3)OCCO4)cc2)n1	25µM*	18%	-2%	-4%	-3%	-14%	-109%[inhibitor]
O=C(Nc1ccc(C(=O)NN2C(=O)c3ccccc3C2=O)cc1)c1ccccc1	-2%	.	3%	-2%	9%	?	-25%
O=c1oc2ccccc2cc1-c1csc(Cc2nc(-c3ccc(Cl)cc3)cs2)n1	?	-76%[inhibitor]	-15%	-27%	-17%	0%	13%[10 µM]
CCOc1ccc(NC(=O)CSc2nnc(Cn3cnc([N+](=O)[O-])n3)n2CC)cc1	?	-15%	-3%	-4%	-3%	6%	-47%[inhibitor]
COc1ccc(C2CC(c3ccccc3)=NN2C(=O)CSc2ncn[nH]2)cc1 (configuration not stated)	?	11%	-7%	-8%	2%	11%	14%
CCOc1ccc(OCCCCn2ccnc2)cc1	-9%	-18%	6%	7%	10%	2%	25%[10 µM]
COc1cc(NC(=O)c2ccnc(N)c2)cc(C(=O)Nc2cccc(C(F)(F)F)c2)c1	.	.	-6%	?	-38%[9.22 µM]	28µM*	-14%[10 µM]
CC1CN(C2CC(C)(C)NC(C)(C)C2)CCC1=O (configuration not stated)	4%	5%	-4%	-5%	18%	-1%	0%
COc1ccc2nc(Nc3nc(CSc4ccc(C)cc4)cc(=O)[nH]3)nc(C)c2c1	?	.	?	3%	-7%	4%	-53%[inhibitor]
COC(=O)/C(C#N)=C/c1ccc(OC(=O)c2ccccn2)cc1	3.5µM*	11%	?	7%	8%	7%	.
CCC(C)C(NC(N)=O)C(=O)Nc1ccc(C)c(Cl)c1 (configuration not stated)	-4%	8%	-5%	-5%	-10%	1%	.
O=C(/C=C/c1ccc(Br)o1)NCc1ccccc1	6.3µM*	-1%	-14%	-6%	0%	-9%	-25%
COC(=O)c1ccccc1C(=O)N1CCCC(CCC(=O)NCc2ccc(F)c(F)c2)C1 (configuration not stated)	?	.	?	-24%	-10%[9.22 µM]	13%	-31%[10 µM]
O=[N+]([O-])c1ccc(N=Cc2ccc(Br)c([N+](=O)[O-])c2)cc1	7.9µM*	-13%	?	-14%	11%	-3%	20%[10 µM]
CC1CCCN(CCOCCOc2ccccc2-c2ccccc2)C1 (configuration not stated)	-14%	-10%	-7%	-4%	-17%	6%	-18%[10 µM]
Going on with the list.
SMILES	ALDH1A1 block	SMN2 splice up	Tau ThT inhib	Tau fluor cs	HTT aggregate	Tau FP inhib	HTT cytoprotect
COc1ccc(-c2cc(-c3nnc(COC(=O)c4ccc(O)cc4)o3)c3ccccc3n2)cc1OC	?	-25%	?	?	15%[9.22 µM]	?	-15%
CCS(=O)(=O)N1CCN(C(=O)COc2ccc(-c3ccccc3)cc2)CC1	-17%	-22%	-13%	-17%	-1%	2%	-5%
O=C(COC(=O)c1cc([N+](=O)[O-])ccc1NCCO)Nc1ccc2c(c1)OCO2	?	-43%[inhibitor]	-6%	-15%	?	-10%	-41%[inhibitor]
COc1c(OC)c(O)c2c(=O)c(O)c(-c3ccccc3)oc2c1OC	?	.	?	-26%	3%[9.22 µM]	2%	2%[10 µM]
COC(=O)C1=C(C)NC2=C(C(=O)CC(C)(C)C2)C1c1ccccn1 (configuration not stated)	?	?	0%	1%	8%	0%	28%[10 µM]
COc1ccc(C2CC2/C(C)=N/OC(=O)C2CC2)cc1 (configuration not stated)	4%	16%	-7%	-4%	-4%	-2%	-47%[inhibitor]
O=C(c1ccccc1F)N1CCN(Cc2cccc(Cl)c2)CC1	?	-32%[inhibitor]	-3%	0%	?	-4%	-1%[10 µM]
CC1=C(C(=O)Nc2ccccc2)C(c2cccnc2)n2nc(-c3cccnc3)nc2N1 (configuration not stated)	?	12%	-12%	-10%	14%	-6%	-27%
CN1CN(C)C(c2ccncc2)=C1c1ccncc1	.	.	.	4%	0%[9.22 µM]	-36%	-11%[10 µM]
O=C(C1CCN(Cc2ccc(Cl)cc2)CC1)N1CCN(C(c2ccccc2)c2ccccc2)CC1	?	.	?	-2%	?	5%	3%[10 µM]
CCCCOc1ccc2c(c1)/C(=C(\C(Cl)=C(Cl)Cl)[N+](=O)[O-])N2	?	-4%	?	-19%	-14%	3%	-51%[inhibitor]
Cc1c(/C=N/NC(=O)CNc2ccccc2)c2ccccn2c1C(=O)c1ccncc1	-6%	-13%	14µM*	?	-24%	?	35%[10 µM]
CCc1ccccc1OCCCCCNCCO	1%	-1%	-4%	5%	4%	-2%	7%[10 µM]
c1ccc(OCCOCCN2CCc3ccccc3C2)cc1	3%	-4%	-5%	-2%	16%	-13%	7%[10 µM]
CCN(CC)C1=N/C(=C\c2ccco2)C(=O)N1c1ccccc1	?	-3%	?	-8%	6%	-8%	-14%[10 µM]
CC(=O)c1ccc(NC(=O)c2cnsn2)cc1	-8%	.	?	-7%	8%[9.22 µM]	-7%	-17%[10 µM]
C/C(=N\NC(=O)c1ccc(NS(=O)(=O)c2cccs2)cc1)c1ccccn1	.	.	-8%	-2%	-31%[9.22 µM]	1%	2%[10 µM]
CCOCCCNCc1ccc(Cl)cc1	-15%	-6%	-7%	-4%	-9%	13%	-1%[10 µM]
CCc1ccccc1N/N=C(/C)c1c(O)cc(C)oc1=O	7.9µM*	-19%	-17%	-4%	9%	-1%	-6%
O=C(CN1CCN(c2ccc(O)cc2)CC1)NC(=O)NCc1ccco1	?	.	-12%	-7%	?	3%	-11%[10 µM]
COc1nc(NCCc2ccc(OC)c(OC)c2)nc(OC)n1	1%	-8%	-4%	1%	12%	3%	-17%
CCN1CCN(Cc2oc(CO)cc(=O)c2O)CC1	-6%	-11%	-8%	-6%	-16%	-4%	3%
CN(CCOc1ccccc1)CC(=O)Nc1cccc(Br)c1	?	-9%	-4%	-14%	9%	3%	-32%[inhibitor]
COCc1cc(=O)[nH]c(-c2csc(C)n2)n1	-8%	.	4%	15%	7%[9.22 µM]	2%	12%[10 µM]
Cn1c(C(=O)NCCN2CCN(Cc3ccccc3)CC2)cc2c(=O)n(C)c3ccccc3c21	.	.	-4%	-4%	10%[9.22 µM]	0%	-13%
COc1ccc(C2SCC(=O)N2CCc2ccc(OC)c(OC)c2)cc1 (configuration not stated)	-4%	.	?	-32%	-4%[9.22 µM]	13%	-15%[10 µM]
Cc1ccc(C)c(NC(=O)CCc2ccc(S(=O)(=O)NC3CCCCC3)cc2)c1	-9%	-18%	-17%	-21%	-30%	0%	-5%

Structural class, the compounds so far containing an aryl methoxy group (ten)
SMILES	ALDH1A1 block	SMN2 splice up	Tau ThT inhib	Tau fluor cs	HTT aggregate	Tau FP inhib	HTT cytoprotect
COc1ccc(/C=C/C(=O)OCC(=O)c2ccc3c(c2)NC(=O)CO3)c(OC)c1	6%	.	?	-25%	-5%[9.22 µM]	-7%	17%[10 µM]
COc1ccc(NC(=O)c2nc[nH]c2C(=O)N[C@@H](C)C(=O)OC(C)(C)C)cc1	.	.	1%	?	1%[9.22 µM]	?	6%[10 µM]
COc1ccc(C2CC(c3ccccc3)=NN2C(=O)CSc2ncn[nH]2)cc1 (configuration not stated)	?	11%	-7%	-8%	2%	11%	14%
COc1cc(NC(=O)c2ccnc(N)c2)cc(C(=O)Nc2cccc(C(F)(F)F)c2)c1	.	.	-6%	?	-38%[9.22 µM]	28µM*	-14%[10 µM]
COc1ccc2nc(Nc3nc(CSc4ccc(C)cc4)cc(=O)[nH]3)nc(C)c2c1	?	.	?	3%	-7%	4%	-53%[inhibitor]
COc1ccc(-c2cc(-c3nnc(COC(=O)c4ccc(O)cc4)o3)c3ccccc3n2)cc1OC	?	-25%	?	?	15%[9.22 µM]	?	-15%
COc1c(OC)c(O)c2c(=O)c(O)c(-c3ccccc3)oc2c1OC	?	.	?	-26%	3%[9.22 µM]	2%	2%[10 µM]
COc1ccc(C2CC2/C(C)=N/OC(=O)C2CC2)cc1 (configuration not stated)	4%	16%	-7%	-4%	-4%	-2%	-47%[inhibitor]
COc1nc(NCCc2ccc(OC)c(OC)c2)nc(OC)n1	1%	-8%	-4%	1%	12%	3%	-17%
COc1ccc(C2SCC(=O)N2CCc2ccc(OC)c(OC)c2)cc1 (configuration not stated)	-4%	.	?	-32%	-4%[9.22 µM]	13%	-15%[10 µM]

Screening data: PubChem BioAssay, National Center for Advancing Translational Sciences (NCATS)
